HPGD block – qHTS Assay for Inhibitors of HPGD (15-Hydroxyprostaglandin Dehydrogenase); 15-hydroxyprostaglandin dehydrogenase [NAD(+)] (Homo sapiens), P15428; 150,000 tested, 4.3% active; purified HPGD, NADH fluorescence kinetic, PGE2 substrate; Potency, µM, without a hit: top-dose activity change, negative = inhibition, actives largely listed as inhibitors; AID 894, 2007; active = well fitted inhibition curve with a large enough effect (not every such curve was filed as active); inconclusive = small, poorly fitted or top-dose-only effect, or another doubt; inactive = no such curve, though single readings can be large or run the other way;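 note: top concentration of the series not given in the record; plate controls included wells without enzyme; inactives centre near -10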
Target sequence (P15428 whole entry, looked up): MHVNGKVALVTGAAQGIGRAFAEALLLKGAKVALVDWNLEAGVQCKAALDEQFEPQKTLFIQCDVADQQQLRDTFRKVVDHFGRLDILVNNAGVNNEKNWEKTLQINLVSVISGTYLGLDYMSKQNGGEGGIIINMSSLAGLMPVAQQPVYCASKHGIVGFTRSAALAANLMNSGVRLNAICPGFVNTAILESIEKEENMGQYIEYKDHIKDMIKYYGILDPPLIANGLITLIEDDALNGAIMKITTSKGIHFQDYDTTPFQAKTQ
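20 nM HPGD preincubated 15 min at room temperature with compound in 50 mM Tris-HCl pH 8, 0.01% Tween 20. Started with 1 mM NAD+ and 30 uM prostaglandin E2; NADH fluorescence (360/450 nm) read 5 times over 30-s intervals, last minus first.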
* = called active by the depositor; ? = inconclusive; & = joins results of further samples. % is set by controls: 0 for no effect and ±100 for the full control effect; potency is the fitted concentration of half-maximal effect. Not all compounds are listed; count on the stated rates, not on these rows.

structure	HPGD block
CC(=O)N1CCN(Cc2nc3cc(NC(=O)c4ccc(Cl)cc4)ccc3n2C)CC1	-15%
Cc1nc2nc(SCC(N)=O)[nH]c2cc1Br	-13%
O=C(c1ccc(CSc2nc3ccncc3[nH]2)cc1)N1CCCCC1	0.56µM*
CC(C)CCNC(=S)Nc1ccc2nc3n(c(=O)c2c1)CCCCC3	4.5µM*
O=C(Nc1ccc(N2CCN(C(=O)c3ccccc3)CC2)c(Cl)c1)c1cccnc1	-16%
CCC(C)(C(=O)NC1CCCCC1)N(C(=O)c1ccccn1)c1ccc(C)cc1 (configuration not stated)	5%
OC(COc1ccc(OCc2ccccc2)cc1)CN1CCOCC1 (configuration not stated)	-21%
CSc1nc(C)c(C(=O)Nc2ccccc2)c(C)c1C#N	-3%

Going on with the list.
structure	HPGD block
c1ccncc1	-5%
CCOc1cc2[nH]c(=S)n(CCN3CCCCC3CC)c(=O)c2cc1OCC (configuration not stated)	-9%
CCOC(=O)N1CCN(C(=O)c2ccc3nc4ccc(Cl)cc4c(=O)n3c2)CC1	?
CCOC(=O)c1c(-c2ccc(C)o2)csc1NC(=O)CN1CCOCC1	?
COc1ccc(CCNC(=O)c2cc(-c3cc(Cl)cc(Cl)c3)oc2C)cc1	-13%
C/C(=C\C(=O)O)C12CC3CC(CC(C3)C1)C2	-11%
OCCNCCCCOc1ccc(OCc2ccccc2)cc1	-11%
CCOC(=O)Cn1ncc2c(=O)oc3ccccc3c21	5%

Continued.
structure	HPGD block
CCOC(=O)CNC(=O)CNC(=O)c1ccc(OC)cc1	-9%
CC(CCc1ccccc1)NC(=O)N1CCOCC1 (configuration not stated)	0%
COCCNC(=O)c1csc2c1CCCC2	16µM*
C=CCn1c(SCC(=O)Nc2sccc2C(N)=O)nc2sc(CC)cc2c1=O	-5%
CCc1ccc2[nH]c(=O)c(CN(CCN(CC)CC)C(=O)Nc3ccccc3OC)cc2c1	-19%
COc1ccccc1NC(=O)c1c(C)cc(=O)oc1C	-9%
c1ccc(-c2noc(-c3ccco3)n2)nc1	3%
COc1ccc(-n2c(Cc3cccn3C)nnc2SCC(=O)NCCc2ccccc2)cc1	-11%

Later entries.
structure	HPGD block
O=C(CSc1nc2[nH]ncc2c(=O)[nH]1)NCc1ccc(F)cc1	-5%
N#CCCn1c(=O)cnc2cnc(Nc3ccccc3)nc21	-20%
CC(C)NC(=O)C(=O)N/N=C/c1ccco1	-13%
Cc1ccc(C(=O)O)cc1-c1ccc(/C=C2/NC(=O)N(c3ccccc3)C2=O)o1	?
CCCCN(CCNP(=O)(OCC)OCC)CP(=O)(OCC)OCC	-8%
COCCN(C(=S)Nc1cccc(OC)c1)C1CCN(C(C)C)CC1	2%
Cc1cc(NS(=O)(=O)c2ccccc2)no1	-12%
CC1Cc2ccccc2N1C(=O)C1CCCCN1S(=O)(=O)c1ccccc1 (configuration not stated)	-4%

Arranged by molecular weight (rising): six of the compounds above
structure	HPGD block
CC(C)NC(=O)C(=O)N/N=C/c1ccco1	-13%
Cc1cc(NS(=O)(=O)c2ccccc2)no1	-12%
COCCN(C(=S)Nc1cccc(OC)c1)C1CCN(C(C)C)CC1	2%
CC1Cc2ccccc2N1C(=O)C1CCCCN1S(=O)(=O)c1ccccc1 (configuration not stated)	-4%
CCCCN(CCNP(=O)(OCC)OCC)CP(=O)(OCC)OCC	-8%
COc1ccc(-n2c(Cc3cccn3C)nnc2SCC(=O)NCCc2ccccc2)cc1	-11%

New compounds follow
structure	HPGD block
Cc1nc2ccc(NC(=O)c3cccc(S(=O)(=O)N4CC(C)OC(C)C4)c3)cc2s1 (configuration not stated)	-7%
CCOc1ccccc1NC(=O)COc1cccc(-n2cnnn2)c1	-14%
COc1ccc(C(=O)NCCn2cc(SCC(=O)NCc3ccco3)c3ccccc32)cc1	-17%
CCOC(=O)C1CCCN(Cc2cc(OC)c(O)c(OC)c2)C1 (configuration not stated)	-4%
COc1ccc(CCN2CCC(Nc3nc4ccccc4n3Cc3ccc(F)cc3)CC2)cc1	-4%&-5%&-4%&2%
CCCCn1c(SCc2ccc(C(=O)OC)o2)nc2cc(S(N)(=O)=O)ccc21	-25%
C=C(Br)CN1CCN(CC(=C)Br)CC1	-2%
CCNc1nc(SC(C(C)=O)C(C)=O)nc(N(C)C)n1	-4%

New compounds follow:
structure	HPGD block
O=C(NCCc1ccccc1)C1CCN(S(=O)(=O)c2ccccc2)CC1	-5%
COCCCn1c(=O)c2ccccc2c2ccccc2c1=O	-9%
CC(C)CC(=O)N1CCN(C(=O)c2cccc(F)c2)CC1	-5%
CCCCc1ccc(NC(=O)N[C@H](C(=O)O)C(C)CC)cc1 (some centres not stated)	-7%
Cc1cc(C(=O)NCC(c2ccco2)N(C)C)no1 (configuration not stated)	3%
CC(C)CCNC(=S)Nc1ccccn1	-7%
O=C(COC(=O)COc1ccccc1)Nc1ccc(OC(F)(F)F)cc1	-3%
CCCn1c(N)c(N2CCCCC2)c(=O)n(CC(=O)Nc2ccccc2C)c1=O	-9%

The results go on.
structure	HPGD block
CC(=O)N(NC(=O)c1ccccc1Cl)C1CC(=O)N(c2ccc(C)cc2)C1=O (configuration not stated)	-3%
O=C(Nc1ccccc1C(=O)NCc1cccnc1)c1ccco1	-16%
O=C(CSc1nnc(-c2ccccc2)n1Cc1ccccc1)N1CCOCC1	-7%
CC(=O)Nc1cc(S(=O)(=O)Nc2ccccc2)c(C)cc1C	0%
CC(=O)c1c(N2CCCC2)[nH]c(-c2ccccc2)nc1=S	-10%
COC(=O)c1ccccc1NC(=S)NC(=O)COc1ccccc1Cl	-24%
CCCCCCC(=O)Nc1ccc(Cl)cn1	-1%
COc1ccc(CCNC(=O)C2CC(=O)N(C3CCCCCCC3)C2)cc1OC (configuration not stated)	-2%

(continued)
structure	HPGD block
CON(C)S(=O)(=O)c1ccc2c(c1)NC(=O)C1CCCN21 (configuration not stated)	-6%
CCSc1nnc(NC(=O)[C@@H](NC(=O)c2ccc(C(C)(C)C)cc2)C(C)C)s1	-18%
Nc1nc2c(ncn2COCCO)c(=O)[nH]1	0%&-9%&-7%&-8%
CCOc1ccccc1/C=C(\C#N)C(N)=O	-10%
COc1ccc2[nH]c(C(=O)c3ccccc3)cc2c1	-22%
COC(=O)c1ccc(CN(C(C)=O)c2ccccc2)o1	-5%
O=c1c2ccccc2nnn1Cc1nnc(-c2ccccc2Br)o1	28µM*
CCCCS(=O)(=O)C1CCS(=O)(=O)C1 (configuration not stated)	3%

Going on with the list:
structure	HPGD block
Cc1ccccc1C(C(=O)NC1CCCC1)N(C(=O)Cc1cccs1)c1ccc2c(c1)OCCO2 (configuration not stated)	-4%
COCCN1CCn2c(nc3cc(NC(=O)c4ccc(OC)cc4)ccc32)C1	-24%
Cc1ccc(CNC(=O)C2CCCN(S(=O)(=O)c3c(C)noc3C)C2)cc1 (configuration not stated)	-10%
Cc1ccc(CN2C(=O)CCC2C(=O)NC2CCCC2)cc1 (configuration not stated)	-9%
COc1ccc(C2C(C#N)=C(N)N3C(=C2C#N)Sc2ccccc23)cc1 (configuration not stated)	-14%
Cc1cc(C)nc(SCCS(=O)(=O)Cc2ccc(Cl)cc2)n1	-17%
CCCCn1c(C(C)O)nc2ccccc21 (configuration not stated)	-3%
O=C(NC(=S)NC1CCCCCC1)c1cncc(Br)c1	-9%

Next results:
smiles	HPGD block
NC(=O)CNC(=O)C1CCCc2c1[nH]c1ccc(Cl)cc21 (configuration not stated)	-8%
COc1ccc(OC)c(NC(=O)CN2C(=O)c3ccccc3S2(=O)=O)c1	2%
CCOC(=O)C1=C(CS(=O)(=O)c2ccc(F)c(C)c2)NC(=O)NC1c1ccc(O)c(O)c1 (configuration not stated)	-14%
COC(=O)C(NC(=O)c1ccccc1)=C1CCCCC1	-11%
COc1ccc(NC(=O)c2sc(=S)[nH]c2N)cc1	28µM*
O=S(=O)(/C=C/c1ccccc1)Oc1ccccc1	-14%
COC(=O)C1=CN(CCCN2CCCC2=O)C=C(C(=O)OC)C1c1ccccc1C(F)(F)F	?
O=C(NC(Cc1ccc2c(c1)OCO2)C(=O)N1CCCC1C(=O)O)c1ccccc1 (configuration not stated)	-3%
COc1ccc(C(=O)Nc2ccc(N3CCOCC3)cc2)cc1OC	-7%
Cc1nc2nc(C)c(CCC(=O)O)c(C)n2n1	-7%
CC(=O)Nc1cccc(N/C=C(\C=O)c2nc3ccccc3o2)c1	?
O=C(CSc1nnc(CCc2ccccc2)n1-c1ccc(Cl)cc1)NCc1ccccc1	-5%
CC(C(=O)O)N1C(=O)c2cccc3cccc1c23 (configuration not stated)	-14%
CSc1nc(C)cc(NC(N)=O)n1	4%
O=C(Nc1cc(Cl)ccc1Oc1ccccc1)c1cnccn1	-4%
CCSc1nnc(NC(=O)CSc2nc(C)cc(C)n2)s1	0%
O=C(CCC1CCCC1)Nc1ccccc1-c1ccccc1	-8%
Cc1ccc(/C=N/NC(=O)Cc2cccs2)o1	-21%
Cc1cc(=O)oc2cc(OC(C)C(=O)N3CCCc4ccccc43)ccc12 (configuration not stated)	-19%
CCOC(=O)c1c(C)[nH]c(O)c1C=Nc1ccccc1	6%
Cc1cc(C(=O)c2ccccc2)nc2ccccc12	-15%
Cc1ccnc(N2C(=O)c3ccccc3C2Nc2ccc3c(c2)OCCO3)c1 (configuration not stated)	-8%
O=C(CSc1nc2ccc([N+](=O)[O-])cc2[nH]1)c1ccc2ccccc2c1	-7%
CCC(C)Sc1nnc(CNC(=O)C23CC4CC(CC(C4)C2)C3)n1C1CCCCC1 (configuration not stated)	-11%
Cc1ccc2nc(-c3ccccn3)cc(C(=O)N3CCN(c4ncccn4)CC3)c2c1	-13%

The results go on.
smiles	HPGD block
CCOC(=O)c1cc2oc(C)cc2n1CC(=O)OC1CCCCC1	-6%
CC(C(=O)NC(=O)NC1CCCCC1)N1CCN(c2ccccn2)CC1 (configuration not stated)	0%
O=C(NCCc1cccc(Cl)c1)c1cccc([N+](=O)[O-])c1	-9%
O=C(CCN1C(=O)c2ccccc2C1=O)Nc1sc2c(c1C(=O)NCc1ccco1)CCCC2	-13%
CCCCN(CC)Cc1ccc(CNC(=O)Nc2ccc(F)cc2)o1	-1%
COC(=O)C1=C(C)N(c2cccc(C)c2)C(=O)/C1=C\c1cccs1	-12%
Cc1nnc(NC(=O)c2c(F)cccc2F)s1	-8%
O=C(NCCO[N+](=O)[O-])c1cccnc1	-7%
Nc1ccccc1SCc1cc([N+](=O)[O-])cc2c1OCOC2	-28%
CCN(CC)CCn1c(NCc2cccc(OC)c2OC)nc2ccccc21	-6%
CCCSc1nc(C)c(-c2csc(C(C#N)=C3CCCC3)n2)cc1C#N	-29%
Cc1ccc2c(c1)N(CC(=O)NCC1CCCO1)C(=O)C(C)O2 (configuration not stated)	4%
Cc1c(Cl)cccc1-n1nnnc1-c1cccs1	-6%
COc1ccccc1N1CCN(C(=O)c2oc3cc(C)c(C)cc3c2C)CC1	?
CCCC[C@H]1C[C@@H]1[C@@H]1N(P(=O)(c2ccccc2)c2ccccc2)C[C@@](O)(c2ccccc2)CC12CC2	-21%
COC(=O)C(CCSC)NC(=O)Cn1ncc2c(=O)oc3ccccc3c21 (configuration not stated)	-11%
CCS(=O)(=O)Nc1ccc(C2=NN(S(=O)(=O)c3ccc(F)cc3)C(c3ccco3)C2)cc1 (configuration not stated)	13µM*
Cc1c(C(=O)c2no[n+]([O-])c2C(=O)c2cnn(C)c2C)cnn1C	-16%
O=C(Oc1ccccc1)N1CCC2(CCCN(c3ncccn3)C2)CC1	?
Cc1ccc(OCC(=O)N/N=C/c2ccncc2)cc1	-8%
CC(=O)c1ccc(NC(=O)c2cc(Cl)sc2Cl)cc1	-15%
COC(=O)C1=C(C(=O)OC)[C@@H]2N(C)c3ccc(OC)cc3[C@@]23C[C@@H](C(=O)OC)N(C(=O)c2ccco2)C3=N1	-5%
CCOC(=O)C1C(C(=O)OC)=C(c2ccc(OC)cc2)c2ccccc2N1S(=O)(=O)C(F)(F)F (configuration not stated)	-12%
COc1ccc(NC(C)=O)cc1NC(C)C(=O)Nc1ccccc1F (configuration not stated)	-5%
COc1cccc(N2CCN(C3C4CC5CC(C4)CC3C5)CC2)c1 (configuration not stated)	-5%

The listing continues:
smiles	HPGD block
COc1cccc(C2CC(=O)Nc3cc4c(cc32)OCCO4)c1OC(C)C (configuration not stated)	-10%
O=C(CSCCc1ccccn1)Nc1ccc(Br)cn1	-7%
O=C(CCNS(=O)(=O)c1cccs1)Nc1nccs1	-7%
O=C(O)c1ccccc1C(=O)NNc1ccc(F)cc1	?
COc1ccc(N2Cc3cccc(C(=O)NC(C)CCc4ccco4)c3C2=O)cc1 (configuration not stated)	?
Cc1ccc(NC(=O)c2oc3ccccc3c2NC(=O)c2ccc3c(c2)OCO3)cc1	?
CNC(=S)N(CCc1c(C)[nH]c2ccc(C)cc12)Cc1ccc(OC)c(OC)c1	-5%
CCN1CCN(C(=O)c2ccc(NS(=O)(=O)c3ccccc3)cc2)CC1	-17%
COc1cc(OC)cc(-c2nc(-c3ccc(Br)cc3)no2)c1	?
CCCN1C2CCCC1CC(NC(=O)c1ccccc1OCC)C2 (configuration not stated)	-5%

An excerpt of these results, with each value named:
> CCCCN(CCNP(=O)(OCC)OCC)CP(=O)(OCC)OCC
  HPGD block = -8%
> Cc1c(Cl)cccc1-n1nnnc1-c1cccs1
  HPGD block = -6%
> CCC(C)(C(=O)NC1CCCCC1)N(C(=O)c1ccccn1)c1ccc(C)cc1 (configuration not stated)
  HPGD block = 5%
> CCc1ccc2[nH]c(=O)c(CN(CCN(CC)CC)C(=O)Nc3ccccc3OC)cc2c1
  HPGD block = -19%

Source: PubChem BioAssay
